Assay outcomes: PubChem, Broad Institute
A1 inhib = A1 inhibition | caspase activation, % (no concentration beside the values) | 21,000 tested, 0.51% active | MEF A1-2A-BIM cells, caspase-Glo luminescence, 3 h; percent of clofoctol signal, DMSO as zero | AID 2241;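 active = most replicate scores above 10, or exactly half above 10 with mean activity above 10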;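 note: effector caspase 3 and 7 activity cleaving a DEVD luciferin substrate; 50 nL library stock added to about 30 µL; numbers are from one replicate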
BJeLR viab HTS = lowers viability of BJeLR cells; 30,000 tested, 0.64% active; BJeLR fibroblasts viability, CellTiterGlo ATP luminescence, 48 h; HRASV12, hTERT and SV40 LT/ST transformed; viability loss activity score, % (concentration not given with the values); AID 2275; in the data active = viability loss activity score above about 50%; about a fifth of its hits are not listed in these tables;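 note: higher score means fewer live cells and less ATP luminescence; stock transfer was 50 or 100 nL into about 30 µL; 0% = vehicle wells and 100% = a reference killing control; one replicate is shown; the record names a cut of 85%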
* = called active by the depositor; / = not tested or not shown. A portion of the library. The share of hits here may be higher or lower than overall.

SMILES	A1 inhib	BJeLR viab HTS
CC(C)NC(=O)N(C)C[C@@H]1Oc2ccc(N(C)C)cc2C(=O)N([C@@H](C)CO)C[C@@H]1C	0.3	5.7
C[C@H]1CN([C@@H](C)CO)C(=O)c2cc(NC(=O)Nc3ccc(F)cc3)ccc2O[C@@H]1CN(C)C(=O)Nc1ccc(C(F)(F)F)cc1	1.0	16
C=C(C)C1CCC2(C(=O)O)CCC3(C)C(CCC4C5(C)C(C=O)C(O)C(C)(CO)C5CCC43C)C12 (centres undefined)	0.1	1.2
Cc1noc(C)c1NC(=O)Nc1cccc2c1O[C@H](CN(C)Cc1ccc(C(F)(F)F)cc1)[C@@H](C)CN([C@H](C)CO)C2=O	/	0.4
C[C@@H]1CN([C@H](C)CO)C(=O)c2cc(NS(=O)(=O)c3ccccc3)ccc2O[C@H]1CN(C)S(C)(=O)=O	-0.7	3.8
C[C@@H]1CN([C@@H](C)CO)C(=O)c2cc(NS(=O)(=O)c3cccs3)ccc2O[C@@H]1CN(C)Cc1ccc(-c2ccccc2)cc1	1.0	-3.9
O=C(/C=C/Sc1ccccn1)c1ccccc1	2.2	76*
C[C@@H]1CN([C@H](C)CO)C(=O)c2cc(NS(=O)(=O)c3cccs3)ccc2O[C@H]1CN(C)S(=O)(=O)c1ccc(F)cc1	0.4	3.0
O=C1/C(=C/c2cccnc2)CS/C1=C\c1cccnc1	/	-3.9
O=C(NCc1ccc(Cl)cc1)c1ccc2c(=O)n(-c3ccccc3)c(=O)[nH]c2c1	/	3.0
N/C(=N\O)c1ccc(Cl)cc1	-0.1	3.2
CC(=O)N1[C@@H](c2ccc(C)cc2)SC(C)(C)[C@@H]1C(=O)O	0.0	4.0
Cc1c(NC2CS(=O)(=O)CC2O)c(=O)n(-c2ccccc2)n1C (centres undefined)	0.3	-1.2
c1ccc(SCCN2CCN(CCSc3ccccc3)CC2)cc1	-0.7	-1.7
CNC(=S)Nc1cscc1S(=O)(=O)c1ccc(Cl)cc1	0.4	19
Cc1ccc(COn2c(-c3ccccc3)nc3ccccc3c2=O)cc1	0.1	-2.8
Nc1ncc(-c2cc3ccccc3oc2=O)s1	-6.9	39
CCOC(=O)Cn1cnc2c(nnn2-c2ccc(C)cc2)c1=O	-0.5	-2.4
CCN(Cc1ccccc1)C(=O)c1ccc(C(=O)N(CC)Cc2ccccc2)cc1	0.4	1.3
Cc1cc(C(=O)Nc2cccc3c2O[C@@H](CN(C)C(=O)Nc2ccccc2)[C@@H](C)CN([C@@H](C)CO)C3=O)n(C)n1	/	3.3
CC(C)CN(CC(C)C)S(=O)(=O)N1CCC(C(=O)N2CCOCC2)CC1	1.2	-3.7
C[C@@H]1O[C@@H](O[C@H]2CC[C@@]3(C)C(CC[C@]4(C)C3CC=C3C5CC(C)(C)CC[C@]5(C(=O)O[C@@H]5O[C@H](CO)[C@@H](O)[C@H](O)[C@H]5O)CC[C@]34C(=O)O)C2(C)C)[C@H](O)[C@H](O)[C@H]1O (some centres undefined)	0.1	0.5
Cc1ccc2oc(=O)c3cc(C(=O)NCCN4CCN(Cc5ccccc5)CC4)sc3c2c1	/	-3.3
COc1ccc(S(=O)(=O)N(C)C[C@@H]2Oc3ccc(NC(=O)Nc4ccccc4)cc3C(=O)N([C@H](C)CO)C[C@@H]2C)cc1	0.2	-8.7
CCN(C(=O)CCc1ccccc1)c1ccccc1	0.6	4.7
CCOc1ccccc1N(C)C(=O)c1cc2cc3ccc(OC)cc3nc2s1	/	-4.4
COc1ccc(Nc2ccc3nnc(-c4ccc(Br)cc4)n3n2)cc1	3.2	-4.0
O=C(NCCc1ccccc1)c1ccc(-c2ccccc2)cc1	-5.8	6.0
COc1ccc(NC(=O)Nc2ccc3c(c2)C(=O)N([C@@H](C)CO)C[C@H](C)[C@H](CN(C)Cc2ccc4c(c2)OCO4)O3)cc1	1.9	6.4
O=C(/C=C/c1ccccc1)CC(=O)/C=C/c1ccccc1	-0.3	0.8
C[C@@H]1CN([C@@H](C)CO)C(=O)c2cccc(NS(=O)(=O)c3ccc(F)cc3)c2O[C@@H]1CN(C)S(C)(=O)=O	/	1.1
C[C@@H]1CN([C@H](C)CO)C(=O)c2cccc(NC(=O)C3CCCCC3)c2O[C@H]1CN(C)C(=O)Nc1ccc(C(F)(F)F)cc1	/	-0.1
C[C@H]1CN([C@@H](C)CO)C(=O)c2cc(NC(=O)Nc3cccc4ccccc34)ccc2O[C@@H]1CN(C)C(=O)Nc1ccc(C(F)(F)F)cc1	0.5	-1.7
CC(C)NC(=O)N(C)C[C@H]1Oc2ccc(NC(=O)Nc3cccc4ccccc34)cc2C(=O)N([C@H](C)CO)C[C@H]1C	0.2	-0.4
Cc1ccc(OCc2nc(N)nc(N(C)C)n2)cc1C	-2.0	5.6
Cc1ccc2oc(=O)n(CC(C)C)c2c1	0.7	11
CNCCC=C1c2ccccc2C=Cc2ccccc21	1.1	0.8
CCOC(=O)Cn1c(=O)oc2cc(S(=O)(=O)NC3CCCCC3)ccc21	/	0.9
CCOC(=O)N1CCC(N2Cc3cccc(C(=O)O)c3C2=O)CC1	/	0.3
C[C@H]1CN([C@@H](C)CO)C(=O)c2cccc(NS(C)(=O)=O)c2O[C@@H]1CN(C)Cc1ccncc1	/	-0.9
CCCc1cc(=O)oc2cc3occ(-c4ccccc4)c3cc12	1.5	-10
COc1ccc(/C=C/C(=O)O[C@@H]2[C@@H](O)[C@H](C)O[C@@H](O[C@H]3[C@@H]4C=CO[C@@H](O[C@H]5O[C@@H](CO)[C@H](O)[C@@H](O)[C@@H]5O)[C@@H]4[C@@]4(CO)O[C@@H]34)[C@@H]2OC(C)=O)cc1	-0.5	-9.0
COc1ccc(NC(=O)Nc2ccc3c(c2)C(=O)N([C@H](C)CO)C[C@@H](C)[C@H](CN(C)S(=O)(=O)c2ccc(Cl)cc2)O3)cc1	0.3	3.6
Cc1noc(C)c1NC(=O)N(C)C[C@H]1Oc2ccc(NC(=O)Nc3ccc(F)cc3)cc2C(=O)N([C@H](C)CO)C[C@H]1C	0.3	-0.9
CC(=O)n1c(-c2ccc(C)cc2)cc(-c2ccc(C)cc2)c(C#N)c1=O	-0.6	-1.7
C=C[C@]1(C)CC[C@H]([C@H](C)C(=O)/C=C/C(C)(C)O)O1	-2.4	27
CSc1nc2ccccc2c(=O)n1CCc1ccccc1	0.4	-0.7
O=C(OCC(F)(F)F)c1ccc(COc2ccc3ccccc3c2)o1	/	4.2
COc1ccc(OCC(O)CNC(=O)c2cc(C(C)(C)C)nn2C)cc1 (centres undefined)	/	4.1
O=C(/C=C/c1ccccc1)Nc1ccc(N2CCN(c3ccc(C(F)(F)F)cn3)CC2)nc1	-0.1	-4.7
COc1ccc(NC(=O)N(C)C[C@@H]2Oc3c(NC(=O)c4cnccn4)cccc3C(=O)N([C@H](C)CO)C[C@@H]2C)cc1	/	-3.8
CC(C)(C)c1ccc(-c2ncon2)cc1Cn1nnc(-c2cccc(C(F)(F)F)c2)n1	-0.8	0.4
O=C(NCCc1ccccc1)c1cnn(-c2ccccc2)c1-n1cccc1	0.0	1.0
C[C@H]1CN([C@@H](C)CO)C(=O)c2cccc(NC(=O)c3ccncc3)c2O[C@H]1CN(C)S(=O)(=O)c1cccs1	/	0.1
C[C@H]1CN([C@@H](C)CO)C(=O)c2cc(NC(=O)Cn3cnnn3)ccc2O[C@@H]1CN(C)S(=O)(=O)c1ccc(F)cc1	0.9	-1.9
C[C@H]1CN([C@@H](C)CO)C(=O)c2cc(NC(=O)Cc3ccccc3)ccc2O[C@H]1CN(C)S(C)(=O)=O	0.3	1.4
CNC[C@@H]1Oc2c(NC(=O)c3ccncc3)cccc2C(=O)N([C@H](C)CO)C[C@H]1C	/	1.4
Cn1c(=O)c2c(nc(CN3CCN(C(=O)c4ccco4)CC3)n2Cc2ccccc2F)n(C)c1=O	/	-2.4
O=C1CC(CSc2ccc(Cl)cc2)=NN1c1nc2ccccc2s1	0.3	2.0
O=C(NCCO)c1nnc(-c2cccc(Cl)c2)o1	/	5.8

Next compounds
SMILES	A1 inhib	BJeLR viab HTS
CC(C)c1cc(/C=C(\C#N)C(=O)NCCCc2ccccc2)cc(C(C)C)c1O	-0.8	4.1
Cc1ccc(-c2nc3ncccn3c2NC(=O)C2CC2)cc1	0.9	-0.5
COc1ccc(NC(=O)N(C)C[C@H]2Oc3ccc(NS(=O)(=O)c4ccccc4)cc3C(=O)N([C@@H](C)CO)C[C@@H]2C)cc1	0.5	0.9
C[C@H]1CN([C@@H](C)CO)C(=O)c2cc(NS(=O)(=O)c3ccc(Cl)cc3)ccc2O[C@@H]1CN(C)Cc1ccc(C(=O)Nc2ccccc2N)cc1	/	0.9
Cc1cccc(NS(=O)(=O)c2ccc3c(c2)oc(=O)n3C)c1	/	7.1
C[C@H]1CN([C@@H](C)CO)C(=O)c2cccc(NC(=O)c3nc4ccccc4s3)c2O[C@@H]1CN(C)S(=O)(=O)c1ccc(Cl)cc1	/	7.4
O=C(Oc1c(-c2ccccc2)c(=O)n2c3c(cccc13)CC2)c1ccccc1	-1.7	1.3
COc1ccc(S(=O)(=O)Nc2ccc3c(c2)C(=O)N([C@@H](C)CO)C[C@H](C)[C@H](CN(C)S(=O)(=O)c2c(C)noc2C)O3)cc1	0.6	-3.2
CC(C)CCNC(=O)c1sc2ccc(S(=O)(=O)N3CCCCC3)cc2c1N	0.0	4.4
COc1ccc(CN(C)C[C@@H]2Oc3ccc(NS(=O)(=O)c4ccc(C)cc4)cc3C(=O)N([C@@H](C)CO)C[C@@H]2C)cc1	-0.2	2.5
O=S(=O)(c1ccc(-c2csc(Nc3ccc(Br)cc3)n2)cc1)N1CCCCC1	15*	9.2
COC(=O)C(C)c1ccc(C(=O)c2cccs2)cc1 (centres undefined)	-0.8	-8.7

An excerpt of these results, as a markdown table:
| Compound | A1 inhib | BJeLR viab HTS |
| --- | --- | --- |
| Cc1cccc(NS(=O)(=O)c2ccc3c(c2)oc(=O)n3C)c1 | / | 7.1 |
| COC(=O)C(C)c1ccc(C(=O)c2cccs2)cc1 (centres undefined) | -0.8 | -8.7 |
| C[C@H]1CN([C@@H](C)CO)C(=O)c2cccc(NC(=O)c3nc4ccccc4s3)c2O[C@@H]1CN(C)S(=O)(=O)c1ccc(Cl)cc1 | / | 7.4 |
| CC(C)CCNC(=O)c1sc2ccc(S(=O)(=O)N3CCCCC3)cc2c1N | 0.0 | 4.4 |
| COc1ccc(NC(=O)N(C)C[C@H]2Oc3ccc(NS(=O)(=O)c4ccccc4)cc3C(=O)N([C@@H](C)CO)C[C@@H]2C)cc1 | 0.5 | 0.9 |
| O=C(Oc1c(-c2ccccc2)c(=O)n2c3c(cccc13)CC2)c1ccccc1 | -1.7 | 1.3 |
| C[C@H]1CN([C@@H](C)CO)C(=O)c2cc(NS(=O)(=O)c3ccc(Cl)cc3)ccc2O[C@@H]1CN(C)Cc1ccc(C(=O)Nc2ccccc2N)cc1 | / | 0.9 |

The list continues:
SMILES	A1 inhib	BJeLR viab HTS
NC(=S)Cc1ccc(Cl)cc1Cl	0.6	0.1
O=C1Nc2ccccc2/C1=C/C(=O)c1ccc(Cl)cc1	65*	65*
O=c1c2ccccc2ncn1Cc1ccc(F)cc1	-0.5	-3.2
COc1ccc(S(=O)(=O)Nc2cccc3c2O[C@H](CN(C)C(=O)Nc2ccccc2)[C@@H](C)CN([C@H](C)CO)C3=O)cc1	/	-1.6
NC(=O)C1CCN(c2nccc(C(F)(F)F)n2)CC1	/	-0.4
COC1OC2c3cc4c(cc3CCN(C)C2c2ccc3c(c21)OCO3)OCO4 (centres undefined)	-0.2	-2.9
C(=C\c1ccccc1)/CSc1nnc(-c2cccnc2)o1	-0.1	-3.1
C(=N\n1cnnc1)/c1ccco1	0.1	2.8
NC(=O)c1ccc2nc3ccsc3c(=O)n2c1	-0.2	-3.0
CC12CC3(C)CC(C)(C1)CC(C(=O)NC(=S)N1CCCC1)(C2)C3	/	-1.8
C[C@@H]1CN([C@H](C)CO)C(=O)c2cc(NS(=O)(=O)c3ccccc3)ccc2O[C@H]1CN(C)Cc1ccc(-c2ccccc2)cc1	-0.4	6.2
COC(=O)c1cn(C)c2ccc(S(=O)(=O)N3CCCCC3)cc2c1=O	0.4	-2.0

Three compounds already listed, ordered by SMILES length, smallest number first:
SMILES	A1 inhib	BJeLR viab HTS
C(=N\n1cnnc1)/c1ccco1	0.1	2.8
NC(=O)C1CCN(c2nccc(C(F)(F)F)n2)CC1	/	-0.4
COC1OC2c3cc4c(cc3CCN(C)C2c2ccc3c(c21)OCO3)OCO4 (centres undefined)	-0.2	-2.9

Next part
SMILES	A1 inhib	BJeLR viab HTS
Cc1nc(C(N)=NC(=O)c2ccc(Cl)cc2)cs1	-3.9	-1.3
O=C(Cc1ccc(-n2c(=S)[nH]c3ccccc3c2=O)cc1)N1CCCC1	-0.5	5.9
C[C@@H]1CN([C@H](C)CO)C(=O)c2cc(NS(=O)(=O)c3ccc(F)cc3)ccc2O[C@@H]1CN(C)S(C)(=O)=O	0.1	-2.0
C[C@H]1CN([C@@H](C)CO)C(=O)c2cc(NC(=O)Cn3cnnn3)ccc2O[C@H]1CN(C)S(=O)(=O)c1ccc(Cl)cc1	0.3	2.6
CCc1ccc(N2C(N)=C(C#N)C(c3cccc(Cl)c3)c3c(C)noc32)cc1 (centres undefined)	0.3	-2.4
CCC(=O)NCC[C@@H]1CCc2ccc3c(c21)CCO3	0.7	-1.4
C[C@@H]1CN([C@H](C)CO)C(=O)c2cccc(NC(=O)c3ccncc3)c2O[C@@H]1CN(C)Cc1ccc(Cl)c(Cl)c1	/	-8.2
O=C1CC(c2ccc(F)cc2)CC(O)=C1C=NCCN1CCN(C(=S)Nc2ccccc2)CC1 (centres undefined)	0.6	8.6
Cc1onc(-c2c(Cl)cccc2Cl)c1-c1csc(CCn2c(=O)oc3ccccc32)n1	0.1	4.9
COc1ccc(S(=O)(=O)N(C)C[C@@H]2Oc3c(NC(=O)Nc4ccc5c(c4)OCO5)cccc3C(=O)N([C@H](C)CO)C[C@@H]2C)cc1	/	-12
